# From PubChem BioAssay
# NOMO-1 viab = NOMO-1 AML cell viability reduction, primary screen, STK33 inhibitor project, CellTiter-Glo luminescence; AID 2330, 2010; inhibition, % (no concentration beside the values); NOMO-1 AML viability, 72 h; 37,000 compounds, 7.5% hits;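 active means most replicates above 80%; inconclusive means exactly half above 80%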;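 further: wells of about 30 µL received 25 nL stock; 0% = median of vehicle wells and 100% = reference inhibitor level; the first replicate is given; inactives centre near 10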
# * marks the source's active call; other numbers are inactive results; ? = inconclusive. Not all compounds are listed (hit frequency here may not be typical).
No.	structure	NOMO-1 viab
1	Cc1ccc(-c2cc(C(F)(F)F)n3nc(C(=O)NCCCn4ccnc4)cc3n2)cc1C	32
2	O=C(COc1ccc2ccccc2c1Br)Nc1ccccc1C(=O)N1CCCCC1	34
3	COc1ccc(S(=O)(=O)Nc2ccc3c(c2)CC(=O)N([C@@H](C)CO)C[C@@H](C)[C@@H](CN(C)Cc2ccncc2)O3)cc1	1
4	C[C@H]1CN([C@@H](C)CO)C(=O)c2cc(NC(=O)Cn3cnnn3)ccc2O[C@H]1CN(C)Cc1ccc(Oc2ccccc2)cc1	6
5	C[C@@H]1CN([C@H](C)CO)C(=O)c2cc(NS(=O)(=O)c3ccccc3)ccc2O[C@H]1CN(C)C	-21
6	C[C@H](CO)N1C[C@H](C)[C@@H](CN(C)CC2CCCCC2)Oc2c(NC(=O)Nc3cccc4ccccc34)cccc2C1=O	53
7	C[C@@H]1CN([C@@H](C)CO)C(=O)Cc2cc(NS(=O)(=O)c3ccc(F)cc3)ccc2O[C@@H]1CN(C)S(=O)(=O)c1ccc(Cl)cc1	13
8	Cc1ccc(S(=O)(=O)N(C)C[C@@H]2Oc3ccc(NC(=O)NC(C)C)cc3CC(=O)N([C@H](C)CO)C[C@H]2C)cc1	-12
9	C[C@@H]1CN([C@H](C)CO)C(=O)c2cccc(NC(=O)C3CCOCC3)c2O[C@@H]1CN(C)Cc1ccc(C(=O)O)cc1	5
10	Cc1ccc(S(=O)(=O)Nc2ccc3c(c2)C(=O)N([C@H](C)CO)C[C@H](C)[C@H](CN(C)S(=O)(=O)c2cn(C)cn2)O3)cc1	-22
11	Cc1nc2ccccc2n1CC(=O)NCCN1CCCC1	-25
12	C[C@@H]1CCCCO[C@H](CN(C)S(=O)(=O)c2cn(C)cn2)[C@@H](C)CN([C@H](C)CO)C(=O)c2cc(NC(=O)Nc3ccc4c(c3)OCO4)ccc2O1	-1
13	COc1ccccc1CNC(=O)c1cccc(NC(=O)c2ccccc2)c1	28
14	C[C@@H]1CN([C@@H](C)CO)C(=O)c2cccc(NC(=O)Nc3ccccc3)c2O[C@H]1CN(C)Cc1ccc(C(=O)Nc2ccccc2N)cc1	125*
15	C[C@H]1CN([C@@H](C)CO)C(=O)c2cc(NC(=O)NC3CCCCC3)ccc2O[C@@H]1CN(C)S(=O)(=O)c1ccc(Cl)cc1	8
16	C[C@@H]1CN([C@H](C)CO)C(=O)c2cc(NC(=O)Nc3ccccc3)ccc2O[C@H]1CN(C)C(=O)Nc1ccc(C(F)(F)F)cc1	28
17	COc1ccc(CN(C)C[C@@H]2OCCCC[C@@H](C)Oc3ccc(NC(=O)CCCCCC(=O)Nc4ccccc4N)cc3C(=O)N([C@H](C)CO)C[C@@H]2C)cc1	16
18	Cc1noc(C)c1S(=O)(=O)Nc1cccc2c1O[C@H](CN(C)C(=O)Nc1ccccc1)[C@H](C)CN([C@@H](C)CO)C2=O	6
19	C[C@@H]1CN([C@@H](C)CO)C(=O)c2cc(NC(=O)Nc3ccccc3)ccc2O[C@@H]1CN(C)C(=O)Nc1ccccc1	-3
20	Cc1ccc(C(O)c2nccc3ccccc23)cc1 (stereo unspecified)	-1
21	O=C(CSc1n[nH]c(-c2ccccc2)n1)Nc1sc2c(c1C(=O)Nc1ccccc1)CCCC2	26
22	C[C@@H]1CN([C@H](C)CO)C(=O)Cc2cc(NC(=O)Nc3ccc4c(c3)OCO4)ccc2O[C@H]1CN(C)S(=O)(=O)c1ccccc1	-5
23	N#C/C(N=Cc1cccs1)=C(\C#N)NCc1ccccc1Sc1ccc(Cl)cc1	52
24	Cc1noc(C)c1S(=O)(=O)Nc1ccc2c(c1)CC(=O)N([C@@H](C)CO)C[C@@H](C)[C@@H](CN(C)C(=O)Nc1cccc3ccccc13)O2	0
25	Cc1nc(SCC(=O)Nc2ccc(F)cc2)nc2c1CCCC2	4
26	O=C(Nc1c(Cl)cc(Cl)cc1C(=O)NCc1cccnc1)c1cccc([N+](=O)[O-])c1	-8
27	O=C(CC(NC1CC1)C(=O)O)c1ccc(Cl)cc1 (stereo unspecified)	30
28	CSc1sc(C(=O)/C=C/N(C)C)c(-c2ccccc2)c1C#N	13
29	O=C1/C(=C/c2ccccn2)CC/C1=C\c1ccccn1	135*
30	Cc1sc(NC(=O)c2cc(-c3ccccn3)nc3ccccc23)c(C(=O)NC2CCCCC2)c1C	24

# Rewritten with each value named: part of the list above.
19. C[C@@H]1CN([C@@H](C)CO)C(=O)c2cc(NC(=O)Nc3ccccc3)ccc2O[C@@H]1CN(C)C(=O)Nc1ccccc1
  NOMO-1 viab: -3
20. Cc1ccc(C(O)c2nccc3ccccc23)cc1 (stereo unspecified)
  NOMO-1 viab: -1

# Further structures follow:
No.	structure	NOMO-1 viab
31	CCC(Sc1nnc2c(n1)[nH]c1ccccc12)C(=O)Nc1cccc2ccccc12 (stereo unspecified)	30
32	CCOC(=O)c1c(NC(=O)C(C)N2C(=O)c3ccccc3C2=O)sc2c1CCC(C)C2 (stereo unspecified)	-12
33	C[C@@H]1CN([C@H](C)CO)C(=O)Cc2cc(NC(=O)Cc3ccccc3)ccc2O[C@H]1CN(C)S(C)(=O)=O	12
34	Cc1noc(C)c1S(=O)(=O)Nc1ccc2c(c1)C(=O)N([C@@H](C)CO)C[C@@H](C)[C@H](CN(C)CC1CCCCC1)O2	4
35	Cc1cc(C(=O)Nc2cccc3c2O[C@@H](CN(C)C(=O)Nc2cccc4ccccc24)[C@H](C)CN([C@H](C)CO)C3=O)n(C)n1	5
36	Cc1noc(C)c1S(=O)(=O)Nc1ccc2c(c1)CC(=O)N([C@@H](C)CO)C[C@H](C)[C@@H](CN(C)C(=O)Nc1ccc(C(F)(F)F)cc1)O2	13
37	C[C@H]1CN([C@@H](C)CO)C(=O)c2cccc(NS(=O)(=O)c3ccc(F)cc3)c2O[C@H]1CN(C)S(=O)(=O)c1cccs1	2
38	Cc1ccc(S(=O)(=O)Nc2cccc3c2O[C@H](CN(C)C(=O)Nc2ccc(C(F)(F)F)cc2)[C@@H](C)CN([C@@H](C)CO)C3=O)cc1	-1
39	Cc1ccc(S(=O)(=O)Nc2cccc3c2O[C@H](CN(C)S(=O)(=O)c2c(C)noc2C)[C@@H](C)CN([C@H](C)CO)C3=O)cc1	-8
40	C[C@@H]1CCCCO[C@H](CN(C)C(=O)c2ccncc2)[C@@H](C)CN([C@H](C)CO)C(=O)c2cc(NS(=O)(=O)c3cccs3)ccc2O1	-6
41	CNC[C@H]1Oc2ccc(NC(=O)Nc3c(C)noc3C)cc2CC(=O)N([C@@H](C)CO)C[C@H]1C	-5
42	CC(C)NC(=O)N(C)C[C@H]1Oc2ccc(NC(=O)Nc3ccc(C(F)(F)F)cc3)cc2CC(=O)N([C@@H](C)CO)C[C@H]1C	114*
43	Cc1noc(C)c1NC(=O)N(C)C[C@H]1OCCCC[C@@H](C)Oc2ccc(NS(=O)(=O)c3ccc(F)cc3)cc2C(=O)N([C@H](C)CO)C[C@@H]1C	0
44	COc1cc2c(cc1NC(=O)CCCN1C(=O)c3ccccc3C1=O)oc1ccccc12	15
45	C[C@@H]1CN([C@H](C)CO)C(=O)c2cc(NC(=O)C3CC3)ccc2O[C@H]1CN(C)Cc1ccc(C(F)(F)F)cc1	26
46	COc1ccc(S(=O)(=O)N(C)C[C@@H]2Oc3c(NS(=O)(=O)c4cn(C)cn4)cccc3C(=O)N([C@@H](C)CO)C[C@H]2C)cc1	6
47	C[C@H](CO)N1C[C@H](C)[C@H](CN(C)C(=O)Nc2ccccc2)Oc2c(NC(=O)C3CCOCC3)cccc2C1=O	-5
48	COc1ccc(NC(=O)N(C)C[C@H]2Oc3c(NS(=O)(=O)c4cn(C)cn4)cccc3C(=O)N([C@@H](C)CO)C[C@@H]2C)cc1	-16
49	COC(=O)CCSc1ncnc2c1sc1nc(N3CCOCC3)c3c(c12)CCCC3	4
50	CCc1ccc(CCC(=O)Nc2ccc(Br)cc2)o1	29
51	COc1ccc(Cl)cc1NC(=O)CN(c1ccc(Cl)c(C(F)(F)F)c1)S(C)(=O)=O	40
52	COc1ccc(S(=O)(=O)Nc2ccc3c(c2)CC(=O)N([C@@H](C)CO)C[C@H](C)[C@H](CN(C)S(=O)(=O)c2ccc(C)cc2)O3)cc1	24
53	C[C@H](CO)N1C[C@H](C)[C@@H](CN(C)C(=O)Nc2ccc(F)cc2)Oc2c(NC(=O)Nc3cccc4ccccc34)cccc2C1=O	56
54	C[C@@H]1CN([C@H](C)CO)C(=O)c2cc(NC(=O)Cc3cn(C)c4ccccc34)ccc2O[C@@H]1CN(C)Cc1ccc(C(F)(F)F)cc1	20
55	O=C1c2ccccc2C(=O)N1CCCc1nc(-c2cccc([N+](=O)[O-])c2)no1	6
56	Cc1ccc(S(=O)(=O)Nc2ccc3c(c2)C(=O)N([C@H](C)CO)C[C@H](C)[C@H](CN(C)C(=O)Nc2ccc(F)cc2)OCCCC[C@@H](C)O3)cc1	50
57	O=C(O)CCc1ccc(-c2cccs2)n1CC1CCCO1 (stereo unspecified)	9
58	C[C@H]1CN([C@@H](C)CO)C(=O)c2cccc(NS(=O)(=O)c3cccs3)c2O[C@@H]1CN(C)C(=O)NC1CCCCC1	4
59	C[C@H]1CN([C@@H](C)CO)C(=O)Cc2cc(NC(=O)Nc3ccc(F)cc3)ccc2O[C@H]1CN(C)S(C)(=O)=O	-14
60	O=C(Cc1ccccc1)Nc1cccc(S(=O)(=O)c2cccc(NC(=O)Cc3ccccc3)c2)c1	59

# In a second layout: 4 of the compounds above.
47: C[C@H](CO)N1C[C@H](C)[C@H](CN(C)C(=O)Nc2ccccc2)Oc2c(NC(=O)C3CCOCC3)cccc2C1=O
- NOMO-1 viab: -5

48: COc1ccc(NC(=O)N(C)C[C@H]2Oc3c(NS(=O)(=O)c4cn(C)cn4)cccc3C(=O)N([C@@H](C)CO)C[C@@H]2C)cc1
- NOMO-1 viab: -16

49: COC(=O)CCSc1ncnc2c1sc1nc(N3CCOCC3)c3c(c12)CCCC3
- NOMO-1 viab: 4

50: CCc1ccc(CCC(=O)Nc2ccc(Br)cc2)o1
- NOMO-1 viab: 29

# Later entries:
No.	structure	NOMO-1 viab
61	C[C@@H]1CN([C@@H](C)CO)C(=O)c2cc(NC(=O)NC3CCCCC3)ccc2O[C@H]1CN(C)Cc1ccc(Cl)c(Cl)c1	61
62	COc1ccc(C(=O)Nc2ccc3c(c2)C(=O)N(C)C3=O)cc1OC	21
63	C[C@@H]1CN([C@H](C)CO)C(=O)c2cccc(NC(=O)CCCCCC(=O)Nc3ccccc3N)c2O[C@@H]1CN(C)Cc1ccc(Oc2ccccc2)cc1	140*
64	C[C@H]1CN([C@@H](C)CO)C(=O)c2cc(N(C)C)ccc2O[C@H]1CN(C)C(=O)NC1CCCCC1	18
65	COc1ccc(NC(=O)CSc2nc(-c3ccccc3)c(-c3ccccc3)o2)cc1OC	68
66	Cc1ccc(NC(=O)C(C)NS(=O)(=O)c2ccc(F)cc2)cc1Cl (stereo unspecified)	-4
67	C[C@@H]1CN([C@H](C)CO)C(=O)c2cccc(NC(=O)C3CCCCC3)c2O[C@@H]1CN(C)C(=O)Nc1ccc(C(F)(F)F)cc1	33
68	COc1ccc(S(=O)(=O)N(C)C[C@@H]2Oc3c(NC(=O)c4cc(C)nn4C)cccc3C(=O)N([C@@H](C)CO)C[C@H]2C)cc1	7
69	CC(C)NC(=O)Nc1ccc2c(c1)C(=O)N([C@H](C)CO)C[C@H](C)[C@@H](CN(C)C(=O)c1ccccc1)OCCCC[C@@H](C)O2	18
70	O=C(Cn1c(=O)oc2ccccc21)Nc1cccc(C(=O)O)c1	3
71	Cc1cc(C)cc(NC(=O)c2ccc(CSc3nnc(-c4cccc([N+](=O)[O-])c4)n3C)cc2)c1	48
72	O=C(CSc1nc(Nc2ccccc2)nc(Nc2ccccc2)n1)N1CCN(c2ccccc2)CC1	-7
73	C[C@H](CO)N1C[C@H](C)[C@@H](CN(C)S(=O)(=O)c2cccs2)Oc2ccc(NC(=O)Nc3ccc(F)cc3)cc2C1=O	21
74	C[C@@H]1CN([C@H](C)CO)C(=O)Cc2cc(NC(=O)Nc3ccc(F)cc3)ccc2O[C@H]1CN(C)Cc1ccncc1	9
75	Cc1cc(OCC(=O)Nc2ccccc2C(N)=O)c(C(C)C)cc1Br	?
76	O=C(COc1ccc(Cl)cc1Cl)Nc1cccc(-c2nnc(-c3ccccc3)o2)c1	114*
77	COc1ccc(NC(=O)c2ccco2)cc1NC(=O)c1cccnc1	0
78	COc1ccc(CN(C)C[C@@H]2Oc3ccc(NC(=O)Nc4ccccc4)cc3CC(=O)N([C@@H](C)CO)C[C@@H]2C)cc1	51
79	C[C@@H]1CN([C@H](C)CO)C(=O)c2cc(NC(=O)Cc3ccccc3)ccc2O[C@H]1CN(C)C	4
80	COc1ccc(NC(=O)Nc2cccc3c2O[C@H](CN(C)Cc2ccc(-c4ccccc4)cc2)[C@@H](C)CN([C@@H](C)CO)C3=O)cc1	17
81	NC(=O)CSc1oc(-c2cccs2)nc1S(=O)(=O)c1ccccc1	11
82	C[C@H]1CN([C@@H](C)CO)C(=O)c2cc(NC(=O)C3CC3)ccc2O[C@H]1CN(C)CC1CCCCC1	10
83	C[C@@H]1CN([C@H](C)CO)C(=O)c2cc(NS(=O)(=O)c3ccc(Cl)cc3)ccc2O[C@@H]1CN(C)C(=O)Nc1ccc(C(F)(F)F)cc1	8
84	C[C@@H]1CCCCO[C@H](CN(C)S(=O)(=O)c2ccc(Cl)cc2)[C@@H](C)CN([C@H](C)CO)C(=O)c2cc(NC(=O)Cc3ccccc3)ccc2O1	28
85	CNC[C@H]1Oc2c(NC(=O)c3cnccn3)cccc2C(=O)N([C@H](C)CO)C[C@H]1C	-2
86	C[C@H](CO)N1C[C@H](C)[C@H](CN(C)CC2CCCCC2)Oc2c(NC(=O)c3ccc(-c4nccs4)cc3)cccc2C1=O	26
87	Cn1c(SCC(=O)c2ccc(Cl)cc2Cl)nnc1-c1cccnc1	18
88	O=C(CSc1nnc(-c2ccncc2)n1-c1ccc(Cl)cc1)Nc1ccc(C(=O)O)cc1	-34
